LANA-nucl inh: inhibitors of KSHV LANA binding to nucleosomes; FITC-LANA1-23 / chicken nucleosome fluorescence polarization; active compounds read low; z-score (test concentration not listed); actives 0.3% (n = 51,000); AID 720717;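 active = both repeat wells score below -2 in polarization z-score versus plate sample wells, excluding overly bright wells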;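 note: 100 nL library stock added to about 30 µL; numbers are from one replicate; some results filed as inactive read as strong as hits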
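Material: Purified chicken nucleosomes with FITC-labelled LANA N-terminal peptide (1-23) | Reagent: 50 nM FITC-LANA1-23 probe | Medium: TEN-BT buffer, pH 7.5 | Times: 10–45 min incubation at room temperature | Detection: Fluorescence polarization | Replication: Duplicates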
Ab BasE inh: blocks the Acinetobacter baumannii siderophore enzyme BasE; purified BasE, fluorescence polarization binding displacement; inhibition, % (concentration not given with the values); actives 0.1% (n = 84,000); AID 485350;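 active = both replicates above 25% with normal brightness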;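 note: 0% = negative plate control signal and 100% = positive plate control signal; stock transfer was 100 nL into about 30 µL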
* marks the source's active call; other numbers are inactive results; . = no result given; & = joins results of further samples. The list is partial; rates above refer to the full screens.

mol | LANA-nucl inh | Ab BasE inh
CCC(c1nnc(SCC(=O)NCC(F)(F)F)n1Cc1ccccc1)N(C)C (configuration not stated) | . | 1.6
Cc1nc2onc(OCC(=O)OCc3ccccc3)c2c(C)c1C | -0.535 | 4.8
CCC(=O)c1ccc(OCC(=O)NC2CCCCC2C)cc1 (configuration not stated) | . | 0.3
Cc1ccc(-c2nn3c(Cn4cnc5ccccc54)nnc3s2)cc1C | 0.255 | -1.2
Cc1cccc(NC2=CC(=O)CC(C)(C)C2)c1 | -0.216 | -1.2
Cc1nnc(N2CCCC(C(=O)NC(C)C)C2)c2nn(-c3ccccc3)c(C)c12 (configuration not stated) | . | 0.1
COc1cc(/C=c2/sc3nc4ccccc4n3c2=O)cc(OC)c1O | . | -2.7
O=C(O)CCCn1c(=O)c2cccn2c2ccc(F)cc21 | 2.55 | 0.6
CCC(CC)C(=O)N(c1ccc(OC)cc1OC)C1C=CS(=O)(=O)C1 (configuration not stated) | -0.091 | -0.4
CSc1nnc(C)c(=O)n1N | 1.33 | 0.2
CCCS(=O)(=O)N1CCN(C(=O)COc2cccc(C)c2)CC1 | -1.29 | 2.3
CCNC(=O)C(C)Sc1ccccc1 (configuration not stated) | 0.228 | -2.0
CCN1C(=O)/C(=C/C=C2/Sc3cc(NC(C)=O)ccc3N2CC)N(c2ccccc2)C1=S | . | -6.2
NC(=O)c1ccc(NC(=O)c2cccc3c2OCCCO3)cc1 | . | -1.8
CC1=CC2=NC(=N)/C(=C/C3CC=CCC3)C(=O)N2C=C1 (configuration not stated) | . | 0.4
Cc1cc(I)ccc1NC(=O)c1ccc(C(C)(C)C)cc1 | . | 2.9
CC(C)(C)n1nnnc1C(c1cccc(C(F)(F)F)c1)N1CCC(O)CC1 (configuration not stated) | 0.791 | -0.1
CCOc1ccc(-n2cc(-c3ccccc3)c3c(N4CCN(CC)CC4)ncnc32)cc1 | 0.0305 | 1.8
CCCCc1ccc(NC(=O)NCCN2CCNC2=O)cc1 | 0.0865 | -0.5
N/C(=N\N=C\c1ccco1)c1nonc1N | -0.193 | -0.5
CCCNC(=O)c1ccc2nc(N3CCOCC3)sc2c1 | -0.415 | -0.9
O=C1CN(c2ccccc2)C(=O)N1c1ccccc1 | -0.429 | 3.5
CC(Cc1ccccc1)NC(=O)c1ccccc1 (configuration not stated) | 0.501 | -0.3
CCOC(=O)c1cc(Cn2c(=O)c(OCC)nc3cnccc32)on1 | -1.08 | 2.0
CN(C)c1ccc(NC(=O)CC2Sc3ccc(C(F)(F)F)cc3NC2=O)cc1 (configuration not stated) | -0.693 | 4.2

Molecules listed so far that have four or more nitrogen atoms:
mol | LANA-nucl inh | Ab BasE inh
CCC(c1nnc(SCC(=O)NCC(F)(F)F)n1Cc1ccccc1)N(C)C (configuration not stated) | . | 1.6
Cc1ccc(-c2nn3c(Cn4cnc5ccccc54)nnc3s2)cc1C | 0.255 | -1.2
Cc1nnc(N2CCCC(C(=O)NC(C)C)C2)c2nn(-c3ccccc3)c(C)c12 (configuration not stated) | . | 0.1
CSc1nnc(C)c(=O)n1N | 1.33 | 0.2
CCN1C(=O)/C(=C/C=C2/Sc3cc(NC(C)=O)ccc3N2CC)N(c2ccccc2)C1=S | . | -6.2
CC(C)(C)n1nnnc1C(c1cccc(C(F)(F)F)c1)N1CCC(O)CC1 (configuration not stated) | 0.791 | -0.1
CCOc1ccc(-n2cc(-c3ccccc3)c3c(N4CCN(CC)CC4)ncnc32)cc1 | 0.0305 | 1.8
CCCCc1ccc(NC(=O)NCCN2CCNC2=O)cc1 | 0.0865 | -0.5
N/C(=N\N=C\c1ccco1)c1nonc1N | -0.193 | -0.5
CCOC(=O)c1cc(Cn2c(=O)c(OCC)nc3cnccc32)on1 | -1.08 | 2.0

Additional results
mol | LANA-nucl inh | Ab BasE inh
O=C1C(Cc2ccccc2)S/C(=N/N=C/c2ccco2)N1c1ccccc1 (configuration not stated) | 0.494 | -2.7
O=C(NCCc1nc2ccccc2n1CCCOc1ccc(Cl)cc1)c1ccco1 | -0.147 | -0.9
CN1N=C(C(=O)Nc2ccc3c(c2)CCC3)CCC1=O | . | 0.9
O=C(O)CNS(=O)(=O)c1ccc(Cl)cc1 | -0.916 | 1.0
O=C(O)c1cccnc1SCC(=O)N1CCCc2ccccc21 | 2.41 | -4.2
CCCCn1nnnc1CSc1nc2sc3c(c2c(=O)n1-c1cccc(OC)c1)CCC3 | . | -0.7
CC(Oc1ccc2c(C(F)(F)F)cc(=O)oc2c1)C(=O)NN (configuration not stated) | . | 2.6
Cc1ccnc2nc(C(=O)NN3C(=O)c4ccccc4C3=O)nn12 | . | -1.1
O=c1[nH]c(CSc2nc3ccccc3o2)nc2c1cnn2-c1ccccc1 | . | 0.8
COc1ccc(CCNC(=O)NC(C)(C)C)cc1OC | -0.708 | 1.9
O=c1c2c(nc3cc(-c4ccco4)[nH]n13)CSC2 | . | 0.2
CC(C)(C)c1ccc(NC(=O)Oc2ccccc2N2CCOCC2)cc1 | 0.0435 | .
Brc1ccc(/C=N/c2nc3ccccc3n2CCN2CCCCC2)cc1 | . | 0.5
Cc1nc(C#N)c(N/N=C/C=C/c2ccccc2)o1 | -0.316 | 3.1
CN1C(=O)c2ccc(N3CCCC3)cc2C1=O | 1.88 | -5.3
Cn1c(=O)c2cc(S(=O)(=O)NCCC(=O)NC3CCCCCCC3)ccc2n(C)c1=O | -0.811 | 0.4
CC(C)(C)NS(=O)(=O)c1ccc(NC(=O)Nc2ccc(Cl)cc2)cc1 | -0.0525 | -0.8
O=c1oc2ccc(NS(=O)(=O)c3ccc(F)cc3)cc2s1 | 0.361 | -1.1
CN(C)/C=C/C(=O)c1nn(-c2ccc(F)cc2)ccc1=O | -0.605 | -0.8
CC(C)(C)CC(=O)NC1CCCc2ccccc21 (configuration not stated) | . | 2.4
CCOC(=O)C1CCCCN1S(=O)(=O)c1ccc2c(c1)CCCC(=O)N2 (configuration not stated) | . | 4.7
Nc1nc(SCc2cccnc2)[nH]c(=O)c1NC(=O)c1ccco1 | -0.875 | 2.5
O=C(O)c1ccc(S(=O)(=O)N(Cl)Cl)cc1 | -0.226&1.24 | -0.4
CC(C)(CC(=O)O)CC(=O)NC1CCCCNC1=O (configuration not stated) | -0.135 | 1.4
CCOC(=O)c1c2ccc(O)cc2n2ccccc12 | -6.99* | .
O=C(CN1CCC(Cc2ccccc2)CC1)Nc1ccc2c(c1)OCCO2 | . | -0.5
CN(C)S(=O)(=O)c1ccc2c(c1)C(=O)c1cc(S(=O)(=O)N(C)C)ccc1-2 | 0.534 | 0.4
O=C(CCC(=O)N1CCOc2ccccc21)N1CCN(c2ccccc2)CC1 | -0.292 | 0.2
Cc1cc(C)n(CCOc2nonc2N)n1 | -0.483 | -1.0
O=C(c1cccc2ccccc12)N1CCOCC1 | . | -1.9
O=S(=O)(c1ccc(F)cc1)c1cc(C(F)(F)F)cc(C(F)(F)F)c1 | 0.421 | 0.3
CC(NC(=O)Cn1ncc2c1-c1ccccc1OC2)c1ccc2c(c1)OCCO2 (configuration not stated) | -1.34 | -3.5
Cc1ccc2nc(N3CCN(Cc4nnnn4Cc4ccccc4)CC3)c(C#N)cc2c1 | 0.461 | 0.8
O=S(=O)(NCCCN1CCc2ccccc2C1)c1ccc(-c2cc(C(F)(F)F)no2)s1 | . | 1.5
CC[C@H](CO)Nc1nc(NCc2ccccc2)c2ncn(C(C)C)c2n1 | -0.138 | 0.9
COc1cc2c(cc1OC)C(CNC(=O)OCc1ccccc1)NCC2 (configuration not stated) | 0.681 | -3.5
N#Cc1ccccc1CSc1nnnn1-c1ccccc1 | . | 1.2
O=C(Cn1nnc2ccccc2c1=O)NC(=O)NCc1ccccc1 | . | 2.1
CSc1ccc(-c2sc(C)nc2C)nn1 | 0.437 | 0.3
COc1ccccc1/C=C/CN1CC(C)OC(C)C1 (configuration not stated) | -0.47 | -0.2
O=c1cc(-c2ccccc2)nc(SCCOc2ccc3c(c2)OCO3)[nH]1 | -1.12 | 1.8
CCC(=O)Oc1ccc2c(C)c(C)c(=O)oc2c1 | 0.608 | -2.2
O=C(Nc1noc2ccccc12)c1cc2c(s1)-c1ccccc1CC2 | 0.578 | 2.4
CC1(C)C(/C=C/c2cccc(I)c2)=[N+]([O-])C(C)(C)N1O | . | 2.2
CO[C@H]1C=CO[C@@]2(C)Oc3c(C)c(O)c4c(O)c(c5c(nc6cc(C)ccn65)c4c3C2=O)NC(=O)C(C)=CC=C[C@H](C)[C@H](O)[C@@H](C)[C@@H](O)[C@@H](C)[C@H](OC(C)=O)[C@@H]1C | -0.524 | .
CCOC(=O)C1=C(CSc2nc3ccccc3c(=O)n2C(C)CC)NC(=O)NC1C (configuration not stated) | . | 0.7
O=C(Cc1ccc(S(=O)(=O)N2CCOCC2)s1)Nc1nnc(C2CC2)s1 | . | -2.1
CCOC(=O)CSc1nnc(-c2ccc(S(=O)(=O)NCc3cccs3)cc2)o1 | -0.33 | 1.2
CC(N)c1cc(F)c(Cl)cc1Cl (configuration not stated) | . | -18.7
COC(=O)C1=C(O)/C(=C\c2ccccc2OC)N=C1C | . | 0.9

More results follow.
The line under a structure holds: LANA-nucl inh | Ab BasE inh
- CCSc1nc2c(c(=O)[nH]c(=O)n2C)n1C
 : -0.105 | -1.1
- CN(C)c1ccc(C(CC(=O)O)NC(=O)c2ccc(Cl)cc2)cc1 (configuration not stated)
 : -0.639 | 0.7
- CC(C)N(C(=O)CSc1nnc(CSc2ncccn2)n1C)C(C)C
 : -0.0285 | 3.9
- CCCCC(=O)Nc1nnc(-c2ccc(Cl)cc2)o1
 : 0.558 | -1.2
- COc1cc(C(=O)N(Cc2cccnc2)Cc2ccc(C)o2)cc(OC)c1OC
 : -1.83 | 1.1
- CCCCn1nnnc1SCC(=O)NCc1ccccc1
 : -0.028 | -3.5
- COc1ccc(OC)c(NC(=O)c2n[nH]n3c2nc(=O)c2ccccc23)c1
 : 2.5 | 0.8
- COc1ccccc1NCC(=O)N/N=C1\CCS(=O)(=O)c2ccc(F)cc21
 : . | 0.1
- CSc1cc(-c2ccc(Cl)cc2)nc(-c2cccs2)c1
 : . | 5.0
- CCN(CC)S(=O)(=O)c1ccc(NN=c2c(=O)c3ccccc3c2=O)cc1
 : . | -1.1

Entries listed so far marked active in LANA-nucl inh.
| smiles | LANA-nucl inh |
| --- | --- |
| CCOC(=O)c1c2ccc(O)cc2n2ccccc12 | -6.99* |

(further entries)
The line under a structure holds: LANA-nucl inh | Ab BasE inh
- O=C(O)C(Cc1ccccc1)N=Cc1c(O)c2ccccc2oc1=O (configuration not stated)
 : -0.679 | 2.2
- NNC(=O)C(O)(c1ccccc1)c1ccccc1
 : 1.57 | -1.7
- Cn1c(CC(=O)Nc2ccc(Cl)cc2)nnc1SCc1nc2ccccc2c(=O)[nH]1
 : -0.609 | 0.5
- CCC(=O)Nc1cccc(NC(=O)COc2cc(C)cc(C)c2)c1
 : -1.13 | -2.1
- Cc1ccccc1OCc1nc2c3cnn(C)c3ncn2n1
 : -1.18 | -1.3
- Cc1cccc2cc(CNCC3CCCO3)c(Cl)nc12 (configuration not stated)
 : 0.436 | 1.5
- CN(C)c1ccc(CNC(=O)CCC(=O)N2CCSc3ncccc32)cc1
 : . | -1.1
- CC1CC(=O)C2=C(C1)OC(N)=C(C#N)C2c1ccccc1 (configuration not stated)
 : 0.445 | 2.9
- Cc1cc(C)c(C(=O)Nc2cccnc2)c(CC(C)(C)C(=O)O)c1
 : 1.73 | 2.0
- C[C@@H](NC(=O)c1cccnc1)c1ccccc1
 : 0.065 | -0.1
- CCc1ccc(NC(=O)Nc2nnc(N3CCCCC3C)s2)cc1 (configuration not stated)
 : 0.213 | -0.5
- Cc1ccc(C)c(-n2nnnc2SCC(=O)N=c2sc3ccccc3n2C)c1
 : . | -5.0
- CN(C)C(=O)COC(=O)c1ccccc1I
 : . | 2.6
- COC(=O)CSc1ncn(-c2ccccc2)n1
 : 0.296 | -1.1
- COc1cc2c(cc1OC)CN(Cn1nc(C(F)(F)F)n(C)c1=S)CC2
 : . | 2.6
- N#CC(C#N)=Cc1cn(CC(=O)N2CCOCC2)c2ccccc12
 : -0.275 | 1.9
- COc1ccc(CC(=O)N=c2sc3ccccc3n2C)cc1S(=O)(=O)N1CCOCC1
 : . | 0.1
- CCOC(=S)Nc1ccc(I)cc1
 : . | -1.6
- CC1CCCCN1C(=O)CSc1nnc2sc3ccccc3n12 (configuration not stated)
 : -1.04 | 0.2
- O=c1oc2cc(S(=O)(=O)NCCCO)ccc2c2ccc(S(=O)(=O)NCCCO)cc12
 : -0.487 | 1.2
- Cc1ccc2nc(-c3cc4ccccc4oc3=O)[nH]c2c1
 : -0.0645 | -1.0
- CCOc1ccccc1NC(=O)CC1SC(=N)N(c2ccccc2)C1=O (configuration not stated)
 : 0.594 | 2.3
- O=C(O)CCc1nc2cccnc2n1C1CC1
 : -1.61 | 1.6
- Cc1oc2c(c1C(=O)NC(C)c1ccccc1)C(=O)c1ccccc1C2=O (configuration not stated)
 : 0.572 | 0.6
- Cn1cccc1/C=N/n1cnnc1
 : -0.751 | 0.7
- Cc1ccc(S(=O)(=O)N(CC(=O)O)CC(=O)O)cc1
 : -0.64 | 1.1
- CC(C)CNC(=O)COn1nnc2ccc(S(=O)(=O)N(C)C)cc21
 : . | 1.1
- Cc1cnc(C(=O)OCC(=O)c2ccc3[nH]c(=O)[nH]c3c2)cn1
 : . | -1.9
- Brc1cc2c(cc1CSc1nnc3ccccn13)OCO2
 : . | 1.8

Full records, quoted from the list. Order of values: LANA-nucl inh	Ab BasE inh
Listed for Cc1ccc(S(=O)(=O)N(CC(=O)O)CC(=O)O)cc1 : -0.64	1.1
Listed for Cc1ccc2nc(-c3cc4ccccc4oc3=O)[nH]c2c1 : -0.0645	-1.0
